# H5N1 antiviral: antiviral screen in MDCK cells, H5N1 avian flu | 96,000 compounds, 0.07% hits | inhibition, % at 50 µM | cytopathic effect, luminescence, 72 h; active compounds read high; no value below 0 was filed and about half of the inactive calls have no number; reference of the scale not given here; in the data active means inhibition above about 25%
# * marks the source's active call; other numbers are inactive results; i = inactive. A portion of the library; rates above refer to the full screens.
SMILES,H5N1 antiviral
COc1ccc(NC(=O)Cc2c(O)c3ccccc3[nH]c2=O)cc1,i
Cc1ccc(CNC(=O)CCS(=O)(=O)c2ccc(Br)s2)cc1,0.6
CCCOc1ccc2c(=O)c(-c3cc(C(=O)OC)oc3C)c(C)oc2c1,i
O=C(c1n[nH]c(=O)c2ccccc12)N1CCOCC1,i
CC(C)CC(=O)N/C(N)=N/c1nc2ccccc2s1,0.0
Cc1ccc(S(=O)(=O)N(CC(=O)NCc2ccco2)Cc2ccc(F)cc2)cc1,0.5
CCCOC(=O)c1cc2ccccc2oc1=O,i
c1ccc(-c2n[nH]c(-c3ccccn3)n2)nc1,i
Cc1ccccc1-n1nnc2c(=O)oc3ccccc3c21,2.6
CNC(=O)c1ccc(Oc2ccc(C(=O)NC)cc2)cc1,0.5
O=C(O)CSc1cc(C(F)(F)F)nc(-c2ccccn2)n1,0.1
O=C(c1cc(-c2ccco2)nn1-c1cccc(Cl)c1)N1CCCCC1,0.5
COc1ccc(-n2c(Cc3cccn3C)nnc2SCC(=O)Nc2cccc(Cl)c2)cc1,i
C#CCOc1ccc(Cl)cc1/C=N/O,i
O=C(NCCN1C(=O)C2C3C=CC(C3)C2C1=O)Nc1cccnc1 (stereo unspecified),2.2
c1ccc2c(-c3ccncc3)c[nH]c2c1,2.4
COc1cccc(-n2c(SCc3c(C)noc3C)nnc2-c2cccc(S(=O)(=O)N(C)C)c2)c1,i
COc1ccc(C(C)=O)cc1COC(=O)c1c(C)noc1C,i
O=C(NCC1CCCCC1)C12CN(Cc3ccccc3)CC1C(c1cccc([N+](=O)[O-])c1)=NO2 (stereo unspecified),0.7
CC1(C)CC(=O)c2cc(OCC(=O)N3CCCCCC3)ccc2O1,0.3
CC(=N\Nc1ccccc1)/C(=N/O)C(=O)Nc1ccccc1,i
O=C(COc1cccc2cccnc12)N/N=C1\SCC(=O)N1Cc1ccccc1,i
CS(=O)(=O)c1ccc(C(=O)NC2CCOC2=O)cc1 (stereo unspecified),i
Cc1ccc(-n2c(Cc3cccn3C)nnc2SCC(=O)Nc2cc(C)on2)cc1,0.6
COc1ccc(NC(=O)C2CCN(S(C)(=O)=O)CC2)cc1Cl,i
CCOc1ccc(NC(=O)CSc2nc3ccccc3c(=O)n2CCNC(C)=O)cc1,0.1
O=C(CSc1nnc(-c2ccncc2)n1-c1ccccc1)N1CCN(c2ccc(Cl)cc2)CC1,0.1
Cc1ccc(N=Cc2sc(O)c3ccccc23)cc1,1.4
Cc1cc2cc(CNS(=O)(=O)N(C)C)ccc2[nH]1,i
COc1ccc(C2=NOC(C(=O)NCc3ccccn3)C2)cc1OC (stereo unspecified),i
Cn1c(=O)[nH]c(=O)c2c1nc(N1CCCCC1)n2CCOc1ccccc1,4.6
CSc1ccccc1C(=O)NCc1ccc(S(N)(=O)=O)cc1,i
CCCc1cc(C(=O)N2CCN(S(=O)(=O)c3ccc(OC)c(OC)c3)CC2)cs1,i
CCOC(=O)c1ccc(Oc2nc(NC)nc(Nc3ccccc3)n2)cc1,i
COc1ccc(-c2nn(CC(=O)N(C)C)c(=O)c3ccccc23)cc1,0.1
O=C(Nc1ccccc1C(=O)N1CCOCC1)C1CCCO1 (stereo unspecified),0.5
CCOC(=O)c1ccc(OCc2nc(-c3cccs3)no2)cc1,0.1
N/C(=N\OC(=O)c1ccc(Cl)cc1)c1ccccn1,1.3
CC1(C)CC(=O)C2=C(C1)N(Cc1ccc(F)cc1)C(=O)C2(NC(=O)c1cccnc1)C(F)(F)F (stereo unspecified),i
CCOC(=O)N1CCN(S(=O)(=O)c2ccc(C(=O)Nc3nc4c(s3)CC(C)CC4)cc2)CC1 (stereo unspecified),0.6
COc1ccccc1OCCNC(=O)c1cccs1,2.3
CC1CCN(c2ccc(NC(=O)c3cccnc3)cc2)CC1,i
CC1CCN(C(c2cc3cc4c(cc3[nH]c2=O)OCO4)c2nnnn2CC2CCCO2)CC1 (stereo unspecified),3.3
COC(=O)c1sccc1NC(=O)c1c(C)cc(=O)oc1C,8.1
O=C(Nc1cnc2ccccc2c1)c1ccncc1,1.0
COc1ccc(CNC(=O)COC(=O)c2cccnc2Nc2cccc(C(F)(F)F)c2)cc1,i
CCOCCCNC(=O)c1ccc(CS(=O)(=O)Cc2ccccc2F)o1,0.6
COc1ccc(CCNc2ccc(C)cc2)cc1,i
COc1ccc(-c2nc(C#N)c(NC(C)C)o2)cc1,0.9
COc1ccc(-c2nnc(SCC(=O)c3cccs3)o2)c(OC)c1,i
COC(=O)c1oc2ccc(Cl)cc2c1NC(C)=O,0.7
CCOc1ccccc1NC(=O)Cn1nnc(C(=O)Nc2ccccc2Cl)c1N,i
CCOc1cccc(-c2nnc3n2N=C(c2cc(OC)ccc2OC)CS3)c1,i
COc1cc(C)c(CN2CCN(c3ccccc3)CC2)cc1C,i
CCCCCCn1c(SCC(=O)Nc2cc(C)on2)nc2ccccc2c1=O,1.0
O=C(c1nc(-c2ccccc2)n(-c2ccccc2)n1)N1CCN(S(=O)(=O)c2ccccc2)CC1,1.9
CCOC(=O)C1CCCN(c2c(NCCN3CCCCC3C)c(=O)c2=O)C1 (stereo unspecified),3.0
Cc1cccc(C)c1NC(=O)C(c1ccc(Cl)cc1Cl)N1CCCCC1 (stereo unspecified),1.7
CCCCOc1nc2ccccc2nc1C(C#N)S(=O)(=O)c1ccccc1 (stereo unspecified),0.7
COc1ccc(N=CC2=C(O)c3ccccc3C2=O)c(OC)c1,i

# The list goes on.
SMILES,H5N1 antiviral
Cc1ccc2occ(C(c3nnnn3Cc3ccccc3)N3CCOCC3)c(=O)c2c1 (stereo unspecified),1.2
N#Cc1c2c(c(NCc3ccco3)n3c1nc1ccccc13)CCC2,1.8
Cc1[nH]c2ccccc2c1C(c1ccccn1)N1CCC(C(N)=O)CC1 (stereo unspecified),i
O=c1c2c(-c3cccs3)csc2[nH]c(=S)n1-c1ccccc1,i
C=CCc1c(C)nc(C)nc1N/N=C/c1ccc(F)cc1,0.7
Cc1ccc(NCC(=O)N/N=C\c2ccc([N+](=O)[O-])o2)cc1,i
C=CCNc1oc(-c2cccs2)nc1C#N,1.6
Cc1cc2nc(C(F)(F)F)[nH]c(=O)n2n1,0.8
O=C(O)c1cccc(Cn2cc(Cl)cn2)c1,0.7
Cc1ccc(C(=O)COC(=O)CCc2nc3ccccc3[nH]c2=O)cc1C,0.3
COC(=O)c1cc(OC)c(OC)cc1NC(=S)N1CCN(c2ccccc2)CC1,0.4
Cc1ccc2cc(C(c3nnnn3Cc3ccccc3)N3CCc4ccccc43)c(=O)[nH]c2c1 (stereo unspecified),i
CN1/C(=C/C=C(/C#N)C(N)=O)C(C)(C)c2ccccc21,i
Cc1nn(C(=O)N2CCCCC2)c(C)c1CN1C(=O)c2ccccc2C1=O,i
CCOC(=O)N1CCN(C(=O)CCSc2ccccc2)CC1,0.2
CCC(C)N1C(=O)CCC1C(=O)O (stereo unspecified),1.0
Nc1nc(SCC(=O)N2CCCC2)[nH]c(=O)c1NC(=O)c1ccco1,1.5
CC(C(=O)N1CCc2ccccc21)n1cccc1 (stereo unspecified),0.4
Cc1ccc(-c2nc(NCCN3CCOCC3)c3ccccc3n2)cc1,i
Cc1cc(C(F)(F)F)n(-c2nc(C(=O)N/N=C/c3ccc(F)cc3)cs2)n1,i
COc1ccc(S(=O)(=O)N(C)c2ccc(C(N)=O)cc2)cc1,i
CC(=O)Nc1ccc(C(=O)N/N=C/c2ccccc2OC(=O)c2ccc(Cl)cc2)cc1,0.4
CCOC(=O)N1CCN(C(=O)CSc2nc3c([nH]c4ccccc43)c(=O)n2C)CC1,0.7
Cc1cc(=O)[nH]c(SCCOc2ccc3c(c2)CCC3)n1,1.6
O=C(Cn1nc(-c2ccc(Cl)cc2)ccc1=O)N1CCN(c2ccccc2)CC1,1.1
Cc1ccc(S(=O)(=O)N(C)CC(=O)Nc2cccc3c2CCCC3)cc1,2.5
CNCCCOc1ccc(C)cc1Br,i
CSc1ccc(C2NC(=O)c3c(sc4c3CCN(C)C4)N2)cc1 (stereo unspecified),0.1
Cc1ccc(-c2ncccc2OC(=O)C23CC4CC(CC(C4)C2)C3)cc1,i
Cc1ccc(-n2c(=O)c(C#N)cc3c(=O)n4ccccc4nc32)cc1C,1.7
Cc1nn(C)c(C)c1S(=O)(=O)NC1CCCC1,0.3
O=C(O)c1ccc(NS(=O)(=O)c2cc(Cl)ccc2Cl)cc1,1.5
CCOc1cc(Br)ccc1S(=O)(=O)NCc1ccccc1,1.5
COCCOC(=O)c1c(C)nc(SCC(=O)Nc2ccc(C)cc2)c(C#N)c1-c1ccco1,0.2
CCOC(=O)C(C)n1cnc2c(nnn2Cc2ccc(C)cc2)c1=O (stereo unspecified),1.3
COCCOC(=O)C1=C(N)OC(C)=C(C(=O)OC)C12C(=O)Nc1ccccc12 (stereo unspecified),i
CCCSc1nc(N2CCOCC2)c2c(c1C#N)CC(C)(C)SC2,2.1
CCOc1ccc(C(=O)COc2ccc(NC(C)=O)cc2)cc1,0.6
CCCn1nnc(NC(=O)C(C)Oc2ccc(Cl)cc2Cl)n1 (stereo unspecified),i
Cc1cc(N2C(=O)CCC2=O)ccc1NC(=O)c1cccs1,0.5
Cc1sc2ncn(CC(=O)OCC(=O)NC(C)(C)C)c(=O)c2c1C,i
O=C(Nc1ccc2[nH]c3c(c2c1)CCCC3)c1ccco1,0.1
Cn1cc(C(=O)c2ccccc2)c2ccccc21,i
Cn1cc(-c2nnnn2-c2ccccc2)c(=O)c2ccccc21,0.2
COc1ccc(C(C(=O)NC(C)(C)C)N(Cc2ccco2)C(=O)CCC(=O)Nc2cc(C)on2)cc1 (stereo unspecified),i
O=C(NCc1ccccn1)c1cccc([N+](=O)[O-])c1,0.7
Oc1ccc(CN2CCc3ccccc3C2)c2cccnc12,i
Cc1sc2ncnc(SCC(=O)N3CCCC3)c2c1C,i
Cn1nc(C(=O)NC2CCCCC2)c2ccccc2c1=O,1.2
Cc1scc(C(=O)Nn2cnnc2)c1-c1ccccc1,i
COc1cc(C2C(C(=O)c3ccc(C)o3)=C(O)C(=O)N2c2cc(C)on2)cc(Br)c1O (stereo unspecified),0.7
O=C(CCn1c(=O)[nH]c2ccsc2c1=O)N1CCN(Cc2ccc3c(c2)OCO3)CC1,i
Cc1ccc(C(=O)C(C)OC(=O)C2=COCCO2)cc1C (stereo unspecified),0.6
O=C(CCCSc1nc2ccccc2s1)NCc1ccco1,1.3
Cc1ccc(Oc2ccc(NC(=O)c3ccco3)cc2)cc1,i
COc1cccc(Nc2nc(-c3sc(NC(=O)CC(C)C)nc3C)cs2)c1,1.2
Cc1ccc(SCc2cc(=O)[nH]c(N3CCN(Cc4ccccc4)CC3)n2)cc1,0.6
CCc1ccc(C2CC(c3ccccc3Cl)Nc3nc(N)nn32)cc1 (stereo unspecified),3.9
O=C(O)c1ccccc1-c1ccccc1C(=O)NCCCO,i
CCOc1ccc(N2C(=O)CC(/C=C3/N(C)c4ccccc4C3(C)C)C2=O)cc1 (stereo unspecified),1.0

# New compounds follow:
SMILES,H5N1 antiviral
CCOc1ccccc1-n1c(SCC(=O)N(CC)CC)nnc1-c1ccccn1,1.9
COc1ccccc1NC(=O)N1c2ccc(F)cc2CCC1C (stereo unspecified),1.6
CCCCOC(=O)c1ccc(NC(=O)c2ccoc2C)cc1,i
O=C(Nc1ccc(Oc2ncccn2)cc1)c1ccco1,i
O=C1C(Cl)=C(N2CCCCC2)C(=O)N1c1ccccc1Cl,0.6
CCc1cc(=O)oc2cc(C)cc(OCc3nn[nH]n3)c12,0.6
CCC1(C)N=C(c2ccc3c(c2)OCO3)CC(c2ccccc2O)N1 (stereo unspecified),1.4
Cc1cc(=O)n2nc(N3CCCC(C(=O)NCCCN4CCc5ccccc5C4)C3)sc2n1 (stereo unspecified),0.6
COC(=O)c1cc(OC)c(OC)cc1NC(=O)CSc1nnnn1Cc1ccccc1,i
CCn1c(-c2csc(-c3ccccc3)n2)n[nH]c1=S,i
Cc1ccc(S(=O)(=O)N2CCN(C3CCN(Cc4ccccc4)CC3)CC2)cc1,i
Cc1ccc2cc(CN(C)C(=O)C3CCCO3)c(=O)[nH]c2c1 (stereo unspecified),0.6
O=C(Nc1ccc2nc(-c3ccccc3)oc2c1)c1ccco1,1.1
CCc1ccc2[nH]c(=O)c(CN(CCCN3CCOCC3)C(=O)Nc3cccc(Cl)c3)cc2c1,i
Cc1cc(N2C(=O)C(O)=C(C(=O)c3ccco3)C2c2ccc(O)cc2)no1 (stereo unspecified),i
O=C(c1ccc(CNS(=O)(=O)c2ccccc2)cc1)N1CCN(c2ccccn2)CC1,5.1
NC(=O)c1ccsc1NC(=O)COC(=O)C1CCCN1C(=O)c1cccs1 (stereo unspecified),i

# Compounds listed so far that contain a thiophene ring, fused or not, in the order listed:
SMILES,H5N1 antiviral
Cc1ccc(CNC(=O)CCS(=O)(=O)c2ccc(Br)s2)cc1,0.6
Cc1ccc(N=Cc2sc(O)c3ccccc23)cc1,1.4
CCCc1cc(C(=O)N2CCN(S(=O)(=O)c3ccc(OC)c(OC)c3)CC2)cs1,i
CCOC(=O)c1ccc(OCc2nc(-c3cccs3)no2)cc1,0.1
COc1ccccc1OCCNC(=O)c1cccs1,2.3
COC(=O)c1sccc1NC(=O)c1c(C)cc(=O)oc1C,8.1
COc1ccc(-c2nnc(SCC(=O)c3cccs3)o2)c(OC)c1,i
O=c1c2c(-c3cccs3)csc2[nH]c(=S)n1-c1ccccc1,i
C=CCNc1oc(-c2cccs2)nc1C#N,1.6
CSc1ccc(C2NC(=O)c3c(sc4c3CCN(C)C4)N2)cc1 (stereo unspecified),0.1
Cc1cc(N2C(=O)CCC2=O)ccc1NC(=O)c1cccs1,0.5
Cc1sc2ncn(CC(=O)OCC(=O)NC(C)(C)C)c(=O)c2c1C,i
Cc1sc2ncnc(SCC(=O)N3CCCC3)c2c1C,i
Cc1scc(C(=O)Nn2cnnc2)c1-c1ccccc1,i
O=C(CCn1c(=O)[nH]c2ccsc2c1=O)N1CCN(Cc2ccc3c(c2)OCO3)CC1,i
NC(=O)c1ccsc1NC(=O)COC(=O)C1CCCN1C(=O)c1cccs1 (stereo unspecified),i

# Compound activity as filed in PubChem.
